Screening data: PubChem, National Center for Advancing Translational Sciences (NCATS)
Vaccinia mCherry – inhibitors of vaccinia virus infection (mCherry reporter signal); Potency, µM (series often up to 36.5 µM), for the others: at the top dose activity change, negative = inhibition, most hits filed as inhibitors; 0.63% of 310,000 active; Vaccinia virus mCherry reporter infection, fluorescence; about a quarter of the inactives have no number; active = well fitted inhibition curve with a large enough effect; inconclusive = small, poorly fitted or top-dose-only effect; inactive = no such curve, though single readings can be large or run the other way; tested in A549 cells; further: nearly all actives have a fitted effect of over 35% in size; inactives centre near -10
Vaccinia Venus – inhibitors of vaccinia virus (Venus reporter). Vaccinia virus Venus reporter expression, fluorescence. Potency, µM (top dose mostly 36.5 µM), for the others: at the top dose activity change, negative = inhibition, usual class: inhibitors. 0.46% of 330,000 active. AID 720580; active means well fitted inhibition curve with a large enough effect; inconclusive means small, poorly fitted or top-dose-only effect; inactive means no such curve, though single readings can be large or run the other way; tested in A549 cells; further: nearly all actives have a fitted effect of over 30% in size; inactives centre near -10
Starred values were filed as active, the others as inactive; i = inactive; ? = inconclusive; / = not tested or not shown; & = joins results of further samples; [ ] = remark or other dose. On the % scale 0 is the no-effect control and ±100 the full control effect; potency means the concentration at half of the fitted maximal effect. The order is random. About 0.87% of those tested had a hit in this group.

Values run as follows: Vaccinia mCherry | Vaccinia Venus
COCCNC(=S)N=Nc1c(O)[nH]c2c(C)cc(C)cc12
 : -7% | -3%
Cc1ccc(CN2[C@@H](c3ccccc3)COCCS2(=O)=O)cc1
 : ? | ?
COC(=O)C(Cc1ccc(O)cc1)NC(=O)CCNC(=O)c1ccco1 (stereo not given)
 : -2% | -5%
NC(=O)CNC(=O)[C@@H]1CC2(CC(c3ccc(Cl)cc3)=NO2)CN1C(=O)c1ccc(Br)cc1 (stereo not given in full)
 : -22% | -9%
O=C(Nc1ccccc1-c1nnn(CC(=O)N2CCc3ccccc3C2)n1)C1CCC1
 : / | -11%
COc1cc(/C=C2\C=CC(=O)O2)cc(OC)c1
 : ? | -24%
COC(=O)c1ccc(COC(=O)C(NC(=O)Cc2ccccc2)C(C)C)cc1 (stereo not given)
 : i | -8%
CC[C@@H](C)[C@@H]1CN([C@@H](CN2CCC[C@H]2CN2C(N)=NC[C@H]2C(C)C)C(C)C)C(=N)N1CCCC1CCCC1
 : -5% | -13%
COc1ccc(C(=O)NC(=O)COC(=O)CCS(=O)(=O)c2ccc(C)cc2)cc1
 : i | -6%
COc1ccc(N/N=C(/C(C)=O)N2CCCc3ccccc32)cc1
 : ? | ?
COC(=O)CSc1nc(N)nc(C)c1Br
 : 0% | 6%
COc1cc(NS(=O)(=O)c2cc(Br)cc3c2N(C(C)=O)C(C)C3)cc(OC)c1 (stereo not given)
 : -17% | -20%
O=[N+]([O-])c1cc(C(F)(F)F)ccc1Sc1ccccn1
 : -1% | -26%
O=C1NC(Cc2ccc(O)cc2)c2nc3ccc(F)cc3c(=O)n2-c2cc(Cl)ccc21 (stereo not given)
 : -7% | -4%
CCCN1CCC(=O)N([C@H](COc2ccccc2)CC(C)C)CC1
 : -25%&-19% | -11%&-9%
C/C(=N/NC(=O)CCc1ccccc1)c1ccc2c(c1)OCO2
 : -5% | 1%
Cc1ccc(-n2cc(CNCCCn3cccn3)c(-c3cccc(C)c3)n2)cc1
 : -20% | -28%
CCCCOc1cccc(C2(C(=O)O)CCCC2)c1
 : / | -15%
O=C(Nc1ccccc1C(=O)N1CCCC1)c1ncoc1-c1cccc(Cl)c1
 : -4% | -2%
Cc1ccc(CNC(=O)Cn2c(=O)c3sccc3n(Cc3ccc([N+](=O)[O-])cc3)c2=O)cc1
 : -19% | -18%
CCCCCCCCN1C(=O)[C@H](CC(=O)NCc2cccc(C(F)(F)F)c2)C[C@@]2(C(=O)OCC)CCCC=C12
 : 0% | -21%
CN(C)CCCN(C(=O)c1ccc(S(=O)(=O)N2CCc3ccccc3C2)cc1)c1nc2ccc(F)cc2s1
 : 13µM* | 16µM*
Cc1cccc(-n2c(=S)[nH]c3c(oc4ccccc43)c2=O)c1
 : -3% | -14%
Cc1cc(NC(=O)c2ccc(Cl)cc2Cl)n(-c2ccccc2)n1
 : i | -16%
Cc1c(-c2ccccc2)[n+](=O)c2c(n1[O-])CCCCC2
 : 4% | -1%
CCN1CCN(Cc2c(O)ccc3cc(-c4ccc(OC)cc4)c(=O)oc23)CC1
 : -9% | -6%
Cc1cc(C(=O)N/N=C/c2cccnc2)cs1
 : -19% | 4%
Cc1ccc(NC(=O)CNC(=O)Cc2cccc3ccccc23)c(O)c1
 : ? | 2%
Cc1ccccc1-c1nc(CS(=O)(=O)CC(=O)NCCCN2CCCC2=O)c(C)o1
 : -2% | -5%
Cc1cccc(OC(=O)c2sc3ncn(C)c(=O)c3c2C)c1
 : -11% | -9%
CCc1nc2c(OCc3cc(Cl)cc(Cl)c3)cccn2c1N(C=O)Cc1ccc(OC)cc1
 : -15% | -8%
CC(N)c1csc(Nc2ccc(C(=O)c3ccccc3)cc2)n1 (stereo not given)
 : ? | -30%
C/C(=N\NC(=O)c1ccc(CSc2cccc3cccnc23)cc1)C1CCCCC1
 : -27% | -13%
CC(=O)NS(=O)(=O)c1ccc(N2C(=O)c3ccccc3C2=O)cc1
 : i | 8%
Clc1cccc(CN2CCSCC2)c1Cl
 : -11% | -4%
Nc1ccc2nc(SCC(=O)N3CCN(c4ccccc4)CC3)sc2c1
 : -27% | -9%
O=C(NCc1ccc(-c2csnn2)cc1)c1cc(Cl)cc(Cl)c1
 : -12% | -5%
COc1ccccc1-c1cc(-c2ccccc2)nc(=O)[nH]1
 : -28% | -19%
COc1ccc(N(CC(=O)NCc2ccco2)S(=O)(=O)c2ccc(C)cc2)cc1
 : -14% | 0%
CCC(=O)N1CC(=O)Nc2ccc(F)cc2C1c1ccc(F)cc1 (stereo not given)
 : i | -6%
CCn1nc(C(=O)NCC(c2cccs2)N2CCOCC2)c2ccccc2c1=O (stereo not given)
 : -11% | -20%
CCOc1ccccc1N(CC(=O)O)S(=O)(=O)c1ccc(C)cc1
 : -10% | -10%
O=C1N(c2cccc(Cl)c2)C(c2cccnc2)N2CCCN12 (stereo not given)
 : -4% | -10%
Cc1cccc(C)c1OCC(=O)Nc1ccc2c(c1)C(=O)NC2=O
 : -7% | -8%
CCCCc1[nH]nc2c1C1(C(=O)N(CC)c3ccccc31)C(C#N)=C(N)O2 (stereo not given)
 : / | -11%
O=C(NCc1ccc(F)cc1)c1cc2c(=O)n3ccccc3nc2s1
 : -17% | -3%
CC(=O)Nc1ccc(N2CCCCC2)cc1
 : -12% | -6%
N/C(=N\OC(=O)C1CC1)c1ccc([N+](=O)[O-])s1
 : i | -18%
O=C(/C=C/c1c(F)cccc1Cl)NCc1ccc2c(c1)OCO2
 : i | -15%
CC(=O)c1cccc(NC(=O)c2cc(-c3ccc4c(c3)OCCO4)on2)c1
 : -18% | -18%

Carrying on:
Values run as follows: Vaccinia mCherry | Vaccinia Venus
COc1cc2c3nnc(-c4ccc(F)cc4)c-3cn(Cc3cccc(C)c3)c2cc1OC
 : -20% | ?
CCOc1ccccc1N(CC(=O)NCc1ccncc1)S(=O)(=O)c1ccccc1
 : -28% | -4%
CCOn1c(=O)c(-c2cccc3ccccc23)[n+]([O-])c2ccccc21
 : -8% | -1%
Cc1nn(C)c(Oc2ccccc2)c1CCNS(=O)(=O)c1ccc(Cl)cc1
 : ? | ?
CCS(=O)(=O)N1CC(=O)N(c2cc(C)cc(C)c2)C(C)(C(=O)NC2CCCCC2)C1 (stereo not given)
 : -12% | -10%
Cc1cccc(N(C(=O)c2csnn2)C(C(=O)NC(C)(C)C)c2cccnc2)c1 (stereo not given)
 : i | -1%
CCc1cccc(NC(=O)CCS(=O)(=O)c2cc3c(cc2C)NC(=O)CO3)c1
 : i | -4%
CCOC(=O)C(=O)N/N=C(/c1ccccc1)c1ccc(OC)cc1
 : i | -1%
C=CCn1c(SCC(=O)NCc2ccco2)nc2sc3c(c2c1=O)CCC3
 : i | -16%
Cc1nc2cccc(C(=O)NCc3ccccc3)c2o1
 : -8% | -4%

An excerpt from above in order of molecular weight, highest first:
Values run as follows: Vaccinia mCherry | Vaccinia Venus
CCS(=O)(=O)N1CC(=O)N(c2cc(C)cc(C)c2)C(C)(C(=O)NC2CCCCC2)C1 (stereo not given)
 : -12% | -10%
COc1cc2c3nnc(-c4ccc(F)cc4)c-3cn(Cc3cccc(C)c3)c2cc1OC
 : -20% | ?
CCOc1ccccc1N(CC(=O)NCc1ccncc1)S(=O)(=O)c1ccccc1
 : -28% | -4%
Cc1cccc(N(C(=O)c2csnn2)C(C(=O)NC(C)(C)C)c2cccnc2)c1 (stereo not given)
 : i | -1%
Cc1nn(C)c(Oc2ccccc2)c1CCNS(=O)(=O)c1ccc(Cl)cc1
 : ? | ?
CCc1cccc(NC(=O)CCS(=O)(=O)c2cc3c(cc2C)NC(=O)CO3)c1
 : i | -4%
CC(=O)c1cccc(NC(=O)c2cc(-c3ccc4c(c3)OCCO4)on2)c1
 : -18% | -18%
CCCCc1[nH]nc2c1C1(C(=O)N(CC)c3ccccc31)C(C#N)=C(N)O2 (stereo not given)
 : / | -11%
O=C(NCc1ccc(F)cc1)c1cc2c(=O)n3ccccc3nc2s1
 : -17% | -3%
CCOn1c(=O)c(-c2cccc3ccccc23)[n+]([O-])c2ccccc21
 : -8% | -1%
CCOC(=O)C(=O)N/N=C(/c1ccccc1)c1ccc(OC)cc1
 : i | -1%
Cc1cccc(C)c1OCC(=O)Nc1ccc2c(c1)C(=O)NC2=O
 : -7% | -8%
N/C(=N\OC(=O)C1CC1)c1ccc([N+](=O)[O-])s1
 : i | -18%
CC(=O)Nc1ccc(N2CCCCC2)cc1
 : -12% | -6%

More entries follow:
Values run as follows: Vaccinia mCherry | Vaccinia Venus
CCc1cc(Cn2nc(-c3ccccc3)cc2C(=O)NCc2cccs2)on1
 : -23% | ?
CC(C)=CCN1CCN(Cc2cccn2-c2nccs2)CC1CCO (stereo not given)
 : i | -9%
COCC(C)NC(=S)NC(=O)c1cc(S(=O)(=O)N2CCOCC2)ccc1C (stereo not given)
 : i | -13%
O=C(NCCN1CCOCC1)c1c(Cl)cccc1Cl
 : 0% | -16%
Cc1nn2c3ccccc3n(C)c2nc1=O
 : / | -8%
Cn1c(SCC(=O)N2c3ccccc3Sc3ccc(Cl)cc32)nnc1-c1ccco1
 : -11% | -6%
CC(NC(=O)c1ccc(N(C)C)c([N+](=O)[O-])c1)c1ccc(-n2ccnc2)cc1 (stereo not given)
 : -8% | -18%
COc1ccccc1C(=O)NC1CC2CCCC(C1)N2Cc1ccccc1 (stereo not given)
 : -29% | -12%
COc1ccc(NS(=O)(=O)c2cccc(C(=O)NN=Cc3ccc(OC)c(O)c3)c2)cc1
 : -13% | 1%
c1ccc2c(C3CCO3)cccc2c1 (stereo not given)
 : -5% | -3%
O=C(Nc1ccccc1)C1Cc2c(-c3ccco3)ccnc2O1 (stereo not given)
 : 1% | 4%
Cc1[nH]c2ccccc2c1C(=O)CSc1ccc(F)cc1
 : -4% | -13%
COC(=O)c1ccccc1NC(=O)COC(=O)/C=C/c1ccco1
 : 1% | 3%
CC1CCN(C(=O)c2ccccc2NC(=O)Nc2ccccc2)CC1
 : -2% | -12%
CN(C)C(=O)Oc1ccc(Cl)c2cccnc12
 : 0% | 7%
CCc1ccccc1NC(=O)C1CCN(C(=O)c2ccc([N+](=O)[O-])cc2)CC1
 : i | -16%
COc1ccc(NC(=O)C2C3C=CC4(O3)C2C(=O)N(CCN2CCCCC2)C4C(=O)NC2CCCCC2)cc1 (stereo not given)
 : 4% | 6%
CC1CC(C)CN(C(=O)C2CCCN(c3ncnc4c3nc3n4CCCCC3)C2)C1 (stereo not given)
 : i | -12%
CCOC(=O)CCCCCC(=O)Nc1ccc2c(c1)CC(=O)N([C@@H](C)CO)C[C@H](C)[C@@H](CN(C)C(=O)Nc1ccc3c(c1)OCO3)O2
 : -21% | -13%
CCOC(=O)c1c(NC(=O)c2cccc([N+](=O)[O-])c2C(=O)O)sc2c1CCCC2
 : i | 1%
O=C(COC(=O)c1c[nH]c2ccccc12)Nc1ccc([N+](=O)[O-])cc1
 : -14% | -9%
O=C(COC(=O)c1ccc(F)cc1)NCCc1ccc(F)cc1
 : -9% | -3%
Cc1ccc(-c2nnc(SCC(=O)N3CCCc4ccccc43)n2N)cc1
 : / | ?
Cc1nc(N)sc1-c1csc(Nc2cccc(O)c2)n1
 : ? | -20%
COc1ccc(Cl)cc1N(C(=O)c1ccco1)C(C(=O)NC1CCCC1)c1ccncc1 (stereo not given)
 : -18% | 0%
Cc1c(C=O)c2ccccc2n1Cc1cccc(F)c1
 : -21% | -7%
Cc1cccc(C(=O)C2CCN(S(=O)(=O)c3ccc(C(=O)O)cc3)CC2)c1
 : -8% | -10%
CCc1nc2c(OCc3ccc(Cl)cc3Cl)cccn2c1N(C)C(C)=O
 : -17% | -25%
COC(=O)c1ccc(CNc2ccc(C(C)=O)cc2)cc1
 : 3% | -3%
COc1ccc(S(=O)(=O)N(C)C)cc1NCC(=O)Nc1ccc(Br)cc1F
 : i | 0%
CCOc1ccc(NC(=O)c2cccnc2Cl)c([N+](=O)[O-])c1
 : -2% | -13%
CCCCSCCCNC(=O)c1cn(C)c2ccc(S(=O)(=O)N3CCCC3)cc2c1=O
 : -5% | -27%
COCCCNC(=O)CNC(=S)N(Cc1ccccc1)Cc1cccnc1
 : -6% | -8%
Cc1ccc2c(CC(=O)O)coc2c1
 : / | -12%
O=C(Nc1ccn(CCCNCCCN2CCCC2=O)c(=O)n1)OCc1ccccc1
 : -11% | -4%
CCC1(C)N(O)C(C)(C)C(c2ccc(OC)cc2)=[N+]1[O-] (stereo not given)
 : i | -7%
CC1CC2(C)C(=CC1=O)CCC1C3CCC(C)(O)C3(C)CC3OC312 (stereo not given)
 : i | -6%
CCCCn1c(N)c(N(CCOC)C(=O)c2cccc(S(=O)(=O)N3CCCCCC3)c2)c(=O)[nH]c1=O
 : i | -9%
S=C(Nc1ccc(Nc2ccccc2)cc1)NN1CCOCC1
 : -7% | -12%
CC(=O)c1c(C(=O)O)[nH]c(C(=O)O)c1C
 : 3% | -2%
CCCN1CNC(=S)N(Cc2ccccc2)C1
 : -11% | -2%
COc1ccccc1-n1cnc2cc(C(=O)NCCCN3CCOCC3)ccc21
 : / | -16%
COC(=O)[C@@H](Cc1ccccc1)NC(=O)[C@H]1CCC(=O)N1C(=O)OCc1ccccc1
 : 1% | -9%
O=C(CCNc1cc(Cl)cc(Cl)c1)c1ccco1
 : -22% | -12%
N#C/C(=C\c1cc(Cl)cc(Cl)c1)c1cccnc1
 : -6% | -5%[60.7 µM]
Cc1ccc(N(CC(=O)NCCc2ccc(Cl)cc2)S(=O)(=O)N(C)C)cc1
 : -15% | -12%
